BJeLR viability – BJeLR cell viability loss; BJeLR (HRASV12) viability, CellTiter-Glo ATP luminescence, 48 h; reference of the scale not given here; inhibition, % (no concentration beside the values); 300,000 compounds, 0.17% hits;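 active means replicate mean above 50%; inconclusive means above 50% but judged a plate artefact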;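 further: 50 nL library stock added to about 25 µL; numbers are from one replicate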
Sa ugtP lethal – compounds lethal to S. aureus RN4220 ugtP deletion mutant. OD600 growth, 16 h; some inactives read as strong as hits. growth inhibition, % (no concentration beside the values). 330,000 compounds, 0.54% hits. AID 1259309;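 active means z-score under -3 and OD600 up to 0.15 on both plates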;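 further: plate controls were untreated wells for no effect and antibiotic for full effect; wells of about 80 µL received 100 nL stock; the first replicate is given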
Autofluor counter – compound fluorescence in toxin protease inhibitor counterscreen; compound autofluorescence counterscreen, microsphere flow cytometry; hits give high values; fluorescence intensity (concentration not given with the values); 360,000 compounds, 3.1% hits;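 active means at least 3 SD above the mean of all compounds, about 16000 in these data; inconclusive means too few beads counted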;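 further: 100 nL of 1 mM stock went into each well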
Mtb hypoxia rep – Mtb hypoxia fluorescent reporter inhibition; fluorescence inhibition, % (concentration not given with the values); M. tuberculosis hypoxia-regulated fluorescent reporter, fluorescence; 300,000 compounds, 0.1% hits;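 active means 35 to 45% if threefold the growth effect, above 45% if 1.5-fold the growth effect; inactive means the rest, general growth blockers included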;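 further: wells of about 50 µL received 100 nL stock; 0% = vehicle wells and 100% = reference inhibitor wells; whole bacteria with a GFP reporter of the hypoxia response; strong numbers were not always called active; many hits fall short of the cut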
PrP 5UTR inh – inhibition of PrP 5' UTR reporter expression. cell-based PrP 5' UTR mRNA reporter, plate reader. inhibition, % (no concentration beside the values). 340,000 compounds, 0.35% hits;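 active means every replicate at 50% or more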;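 further: 0 = median of the neutral control wells; tested in H4 reporter cells; numbers are from one replicate; inactives centre near -14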
Sa RN4220 lethal – kills Staphylococcus aureus RN4220; 330,000 compounds, 0.33% hits; AID 1259311; S. aureus RN4220 growth, OD600, 16 h; inhibition, % (concentration not given with the values);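 active means z-score of -3 or lower and OD600 up to 0.18 on both plates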;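 further: plate controls were untreated cells for no effect and reference antibiotic for full effect; stock transfer was 100 nL into about 80 µL; one replicate is shown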
Mtb hypoxia rep growth – recorded beside Mtb hypoxia rep, whose call it bears; growth inhibition, %; measured here: M. tuberculosis growth (absorbance);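 0% = vehicle and 100% = reference antibiotic; read after six days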
* = called active by the depositor; ? = inconclusive; . = not tested or not shown.

SMILES	BJeLR viability	Sa ugtP lethal	Autofluor counter	Mtb hypoxia rep	Mtb hypoxia rep growth	PrP 5UTR inh	Sa RN4220 lethal
CCN(CC)CCN(Cc1cc2cc3c(cc2[nH]c1=O)OCO3)C(=S)NCc1ccco1	-5	0	7631	4	9	-32	2.6
COc1cc2[nH]c(=O)n(CCCCCC(=O)N3CC=C(c4ccccc4)CC3)c(=O)c2cc1OC	-17	-19	3447	-1	16	-8	0.6
CC(C)Cc1nnc(NC(=O)Cc2cccs2)s1	-4	-3	4582	-3	0	-18	1.5
Cc1ccc(C(O)P(=O)(OC(C)C)c2ccc(N(C)C)cc2)cc1 (centres undefined)	2	-1	5966	-13	1	.	3.6
C=CCNC(=S)N=c1ccccn1CCC	.	-3	.	2	9	.	2.1
COc1cc(OC)c(NC(=O)c2cc3ccccc3cc2O)cc1Cl	.	5	2789	14	4	-15	3.3
CCCCn1nc2cc(C(=O)NCc3cc(C(F)(F)F)cc(C(F)(F)F)c3)ccc2c1OCC	-8	-4	2731	4	3	-12	-0.2
Cn1nc(C(F)(F)F)cc1C(=O)O	7	15	4564	0	-3	-12	2.4
COC(=O)CSc1nnc(C)n1-c1ccc(C)cc1	-2	6	4678	.	.	-27	1.8
CN(C)c1ccc(N/C=C/C(=O)c2ccccc2)cc1	11	9	10385	7	0	51	9.3
COc1cc(C=NNC(=O)c2cc3ccccc3cc2O)ccc1OCCN1CCCCC1	.	-8	.	1	16	.	1.7
CC(C)NC(=S)NNc1nc2ccccc2s1	10	3	3781	8	6	0	4.9
CC(C)C(NC(=O)c1ccccc1)C(=O)NN=Cc1ccco1 (centres undefined)	.	1	.	9	4	.	3.5
O=C1CN(c2nc(-c3cccnc3)nc3scc(-c4ccccc4)c23)CCN1	1	-1	4547	-7	-6	-7	2.2
COc1cccc(N2CCN(C(=S)Nc3ccc(C)cc3C)CC2)c1	4	1	4361	5	10	-21	2.4
O=C(NCc1cccnc1)c1cc(-c2cccs2)on1	0	-3	8403	-16	-10	-18	0.5
O=C(O)Cn1c(SCc2ccccc2)nc2ccccc21	-7	2	2568	5	13	-14	3.9
CN(C)c1ccc(NC(=O)C[n+]2ccccc2)cc1	2	5	3564	-2	4	-20	1.5
O=C(/C=C/c1ccco1)NC(=S)Nc1ccccc1Br	4	91*	.	6	0	1	2.0
CCCCOCCCNC(=O)c1ccc([N+](=O)[O-])c(C)c1	-9	-1	2528	9	6	-32	1.1
CCc1ccc(NC(=O)CC2C(=O)NCCN2C(=S)Nc2ccccc2)cc1 (centres undefined)	-1	24	2568	18	9	-9	2.3
CCC1(c2ccc(F)cc2)NC(=O)N(CC(=O)NCc2ccccc2Cl)C1=O (centres undefined)	8	2	3537	12	10	-27	2.4
O=C(O)c1ccccc1NS(=O)(=O)c1cccc2cccnc12	-4	13	6248	.	.	-11	0.0
COc1cccc(CN=c2c([N+](=O)[O-])nn(-c3ccccc3C)n2O)c1	6	3	2479	-7	14	-12	7.3
Cc1ccc(-c2noc(CSc3nc(N)cc(N)n3)n2)cc1	17	0	5835	1	4	-121	-1.9

The last 4 entries of the section above lead into the next.
SMILES	BJeLR viability	Sa ugtP lethal	Autofluor counter	Mtb hypoxia rep	Mtb hypoxia rep growth	PrP 5UTR inh	Sa RN4220 lethal
CCC1(c2ccc(F)cc2)NC(=O)N(CC(=O)NCc2ccccc2Cl)C1=O (centres undefined)	8	2	3537	12	10	-27	2.4
O=C(O)c1ccccc1NS(=O)(=O)c1cccc2cccnc12	-4	13	6248	.	.	-11	0.0
COc1cccc(CN=c2c([N+](=O)[O-])nn(-c3ccccc3C)n2O)c1	6	3	2479	-7	14	-12	7.3
Cc1ccc(-c2noc(CSc3nc(N)cc(N)n3)n2)cc1	17	0	5835	1	4	-121	-1.9
Cc1ccc(C(=O)NCC(=O)N2CCC(Cc3ccccc3)CC2)cc1	7	.	?	.	.	-13	.
CCCn1nnnc1NCc1ccc(SC)cc1	6	6	3169	-3	0	-17	1.3
COc1cc(C=C[N+](=O)[O-])ccc1O	.	9	.	24	13	.	8.5
CCCS(=O)(=O)N1CCN(Cc2ccco2)CC1	-1	7	4263	.	.	-8	2.4
O=C(NC1=NCCS1)C12CC3CC(C1)CC(C(=O)NC1=NCCS1)(C3)C2	-11	-21	3291	0	-2	-7	-17
CN(C)S(=O)(=O)c1cccc(NC(=O)c2cc3ccccc3o2)c1	-3	-13	10659	2	12	-36	2.3
CCN(CC)c1ccc(NC(=O)COC(=O)CCC(=O)c2ccc(F)cc2)cc1	-9	2	4014	-1	2	-3	5.2
O=C1NC(=S)S/C1=C\c1coc2ccccc2c1=O	-3	-2	2870	-10	8	-22	19
COc1ccc(NC(=O)CSc2nnc(-c3ccccc3Cl)n2Cc2ccco2)c(OC)c1	-11	6	4779	.	.	-11	5.4
COc1ccc(CONS(=O)(=O)c2ccc(NC(C)=O)cc2)cc1Cl	3	0	20406*	1	4	-6	2.5
COc1ccc2c(c1)S(=O)(=O)c1ccccc1N2	-6	0	4642	10	13	-26	2.4
CCCN(CCC)C(=O)CC(c1ccccc1)c1cc(C)ccc1O (centres undefined)	9	-7	11640	6	8	.	4.6
CCOC(=O)c1ccc2[nH]c(C)c(CCC(C)=O)c(=O)c2c1	9	1	12563	4	14	-16	1.9
O=S(=O)(c1ccc2c(c1)OCCO2)N1CCC(n2nnc3cc(F)ccc32)CC1	1	3	8190	8	6	-30	4.5
COc1ccccc1NCC(=O)Nc1cc(S(=O)(=O)N2CCOCC2)ccc1N1CCOCC1	0	7	3431	-8	5	-17	5.2
COc1cccc(C2/C(=C(/O)c3ccccc3)C(=O)C(=O)N2Cc2ccco2)c1 (centres undefined)	-11	1	.	1	-2	-3	11
COc1ccc(C2CC(c3ccccc3)=NN2c2ccc(/C=N/NC(=O)c3ccncc3)cc2)cc1 (centres undefined)	14	.	3264	.	.	-18	.
Cc1ccc2c(c1)C=CC(C)(C)S2(=O)=O	-2	0	2672	9	-3	-28	4.2
Cc1cc(NC(=S)NC(=O)c2ccccc2)ccc1-c1cc2ccccc2oc1=O	23	6	8682	7	5	-92	10
COc1ccc(S(=O)(=O)N(CCc2ccccc2)CC(N)=O)cc1	4	3	4125	-2	5	-26	5.7
COc1ccc(-c2[nH]ncc2CN2CCC(N3CCSCC3)CC2)cc1F	-2	2	5183	2	2	-27	2.9
COCCn1c(SCC(=O)N2CCCCC2)nc2c(c1=O)SC(C)C2 (centres undefined)	-3	0	5222	3	7	-16	0.5
CSC(=S)N/N=C/c1ccccc1	-4	.	2673	.	.	-14	.
CC1(c2ccc(OC(F)F)cc2)NC(=O)N(CC(=O)Nc2cccc(S(N)(=O)=O)c2)C1=O (centres undefined)	-7	5	4021	8	3	7	-0.3
CCN(CC)S(=O)(=O)c1ccc(NC(=O)CSc2cccc[n+]2[O-])cc1	-5	0	11187	8	2	-26	4.4
SMILES	BJeLR viability	Sa ugtP lethal	Autofluor counter	Mtb hypoxia rep	Mtb hypoxia rep growth	PrP 5UTR inh	Sa RN4220 lethal
c1ccc(CSc2nccc(-c3ccco3)n2)cc1	-4	55	3518	1	15	.	5.9
Cc1cc(-c2csc3ncnc(N4CCN(C)CC4)c23)cc(C)c1C	8	7	4024	20	8	-43	1.6
Cc1csc(NC(=O)CS(=O)(=O)Cc2ccccc2)n1	-3	5	2682	13	-2	-34	3.2
COC(=O)Nc1sc2c(c1C(=O)N1CCOCC1)CCC(C)C2 (centres undefined)	-10	2	10010	-8	4	-37	2.1
Nc1nc(SCC(=O)Nc2ccccc2)[nH]c(=O)c1NC(=O)c1cccs1	-1	0	5422	11	9	-34	-7.5
COc1ccc(-n2c(C)cc(C=NNc3nc(N4CCOCC4)nc(N4CCOCC4)n3)c2C)cc1	.	2	.	0	4	.	1.3
Cn1c(C(=O)OCC(=O)NCc2ccc(F)cc2)cc2occc21	-1	0	5827	1	-1	0	1.1
CCOc1ccccc1OCC(=O)NN1Cc2ccccc2C1=N	-3	0	4517	.	.	-6	-3.9
O=C(O)c1ccc(CN2C(=O)c3ccccc3S2(=O)=O)cc1	7	5	5110	.	.	-19	-0.6
Cc1cc2ccccc2n1CCNC(=O)C(C)(C)C	-2	-6	2350	12	14	-2	-9.6
Cc1nc2ccccc2c2c1CC(C(C)(Cl)Br)O2 (centres undefined)	23	4	3618	6	2	-15	8.3
COc1ccc(NC(=O)C(CC(=O)O)Cc2ccc(Cl)cc2)cc1 (centres undefined)	-8	2	4011	1	-4	-13	2.5
O=C(CCN1C(=O)c2ccccc2C1=O)Nc1cccc(O)c1	-5	12	3545	5	5	-21	2.1
COC(=O)c1cnc(Oc2ccc(NC(=O)NC(=O)c3c(F)cccc3Cl)cc2)cc1C(F)(F)F	35	7	4268	-4	1	5	2.1
CCCCNC(=O)CNC(=S)N(Cc1ccccc1)Cc1cccnc1	-1	2	2808	5	-2	-99	0.0
CCOc1ccc(NC(=O)CSc2nc(=O)n(CCCN3CCOCC3)c3c2CCC3)cc1	12	6	?	5	5	-6	3.1
CCOc1ccc(CCNC(=O)Cn2ccc3ccccc3c2=O)cc1OCC	-8	5	3305	12	8	2	5.2
COC(=O)CN1C(=O)C2C(c3ccc(C)o3)N3C(=O)CN(Cc4ccccc4)C(=O)[C@@]3(C)C2C1=O (some centres undefined)	.	2	.	1	0	.	5.3
Nc1nnc(SCC(=O)Nc2cccc(S(=O)(=O)N3CCCCC3)c2)s1	.	7	2886	2	-4	7	6.9
COc1cc(C2NC(=O)NC(C)=C2C(=O)OC(C)C)ccc1OC(=O)c1ccco1 (centres undefined)	-2	-2	4370	7	10	-10	-1.2
CC1(C)CC(=O)N(c2cc(Cl)ccc2Cl)C(=O)C1	1	8	3673	1	-2	-15	2.7
Cc1cccc(-n2cnc(C(=O)Nc3cccnc3)c2)n1	17	-4	2686	.	.	-34	-0.3
O=C(Nc1ncn[nH]1)c1cc(S(=O)(=O)Nc2cccc(C(F)(F)F)c2)ccc1Cl	11	3	3858	11	7	-16	-3.5
C/C(=N/NS(=O)(=O)c1cc(C)ccc1C)c1ccc2c(c1)OCO2	1	.	6175	.	.	-8	.
Cn1cc(S(=O)(=O)CC(=O)N2CCc3ccccc32)c2ccccc21	-13	1	4441	9	-3	-3	0.2
SMILES	BJeLR viability	Sa ugtP lethal	Autofluor counter	Mtb hypoxia rep	Mtb hypoxia rep growth	PrP 5UTR inh	Sa RN4220 lethal
COc1cccc(-n2c(Cc3cc(=O)[nH]c(=O)[nH]3)nnc2SCC(=O)NC2CCCC2)c1	.	-1	5617	.	.	-25	-0.2
O=C1COc2ccc(C(=O)COC(=O)Cc3ccsc3)cc2N1	1	-4	4750	3	10	-12	3.2
O=C(COc1ccccc1)Nc1ccc(C(=O)N2CCCC2)cc1	-7	-5	4522	2	1	0	0.3
CC(=O)c1ccc(N2CCN(C(=O)c3ccc4nc[nH]c4c3)CC2)cc1	-2	4	2455	4	0	-8	5.8
COc1ccc(Cc2nc(-c3cccs3)no2)cc1	-5	10	2525	13	11	-55	2.7
CCC1CCCCN1S(=O)(=O)c1ccc(C(=O)Nc2nnc(C3CC3)o2)cc1 (centres undefined)	9	50	5399	-1	5	-21	62
O=C(N/N=C/c1cccc([N+](=O)[O-])c1)C1CC(=O)N(c2ccc(F)cc2)C1 (centres undefined)	2	.	9910	.	.	-22	.
O=C(NC1=NCCS1)c1ccc(Br)s1	6	9	10917	4	5	-55	1.7
O=C(NC1CCN(C(=O)Nc2cccc(F)c2)CC1)C1CCCCC1	3	-8	4275	3	3	-18	-3.2
CN(Cc1ncc[nH]1)C(=O)CC1C(=O)NCCN1Cc1c(F)cccc1Cl (centres undefined)	2	6	4567	-3	0	-17	1.0
CCO[C@@H]1OC(C(=O)N2CCN(C)CC2)=C[C@H](c2csc3ccccc23)[C@H]1CCCO	-1	.	3022	.	.	-2	.
Cc1ccc(S(=O)(=O)N2CCN(C(=O)COc3ccc(-c4nnco4)cc3)CC2)cc1	1	6	3278	5	1	-22	2.3
CC(NC(=O)COc1ccccc1)C(=O)N1CCN(c2ccccc2)CC1 (centres undefined)	.	3	8785	5	6	-5	6.7

Quoted from the listing.
Sa ugtP lethal, `COc1ccc(S(=O)(=O)N(CCc2ccccc2)CC(N)=O)cc1` = 3
BJeLR viability, `CSC(=S)N/N=C/c1ccccc1` = -4
